Rce1 inh – yeast Ras-converting enzyme inhibition; calls only; 290,000 tested, 0.27% active; Q03530; yeast membranes, quenched prenylated peptide cleavage fluorescence; AID 2563;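 active means fall in fluorescence gain of 50% or more versus controls, with final raw signal at or below 3038400; inconclusive means same 50% fall but final raw signal above 3038400; inactive means fall in fluorescence gain under 50%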;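 further: plate controls were neutral control wells for no effect and wells lacking membranes for full effect; tested at 10 µM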
Target sequence (Q03530 whole entry, looked up): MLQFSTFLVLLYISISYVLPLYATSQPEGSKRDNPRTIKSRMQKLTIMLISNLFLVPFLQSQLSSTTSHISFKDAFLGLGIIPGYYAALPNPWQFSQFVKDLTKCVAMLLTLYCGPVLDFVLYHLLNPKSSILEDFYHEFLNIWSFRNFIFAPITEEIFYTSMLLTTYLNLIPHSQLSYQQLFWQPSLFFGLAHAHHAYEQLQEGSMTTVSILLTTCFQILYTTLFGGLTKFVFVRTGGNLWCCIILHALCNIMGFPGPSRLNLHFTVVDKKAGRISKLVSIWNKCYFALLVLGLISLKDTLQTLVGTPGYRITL
eIF4H inh – inhibitors of RNA binding by human eIF4H; inhibition, % at 35 µM; Q15056; AID 2012; eIF4H fluorescence polarization binding assay; 290,000 tested, 0.94% active;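 active means 50% or more with normal probe brightness, or confirmed in later tests; inconclusive means above 50% with abnormal brightness, or retests that disagree; inactive means below 50% or failed in later tests; about a fifth of its hits are not listed in these tables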;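 further: calls also rest on retests at 20 µM and on dose response follow-up; 0% = protein and probe with vehicle and 100% = probe without protein; strong numbers were not always called active; many hits fall short of the cut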
Yeast UUG start – alters start codon recognition fidelity in yeast; AID 602363; activity score, % at 18.7 µM; 350,000 tested, 0.13% active; S. cerevisiae UUG-firefly luciferase reporter, luminescence/redox ratio;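 active means replicate mean at a twofold rise or more, about +100% in these data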;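 further: firefly luciferase made from a UUG start codon reports start codon fidelity; reporter light over untreated wells divided by growth signal over untreated wells; some hits fall short of that in this replicate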
CSC inhib – blocks cancer stem cells. cancer stem cell-like cells viability, luminescence. inhibition, % at 7.5 µM. 300,000 tested, 1.1% active;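 active means mean at 75% or more and at least half the replicates too; inconclusive means mean and replicates disagree; tested in HMLE shEcad cells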;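 further: 0% = median of negative and 100% = median of positive control wells; the first replicate is given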
PABP FP inh – blocks human PABP binding to poly(A) RNA. P11940. fluorescence polarization. inhibition, % at 35 µM. 290,000 tested, 1% active;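 active means 50% or more with normal probe brightness, or confirmed in later tests; inconclusive means above 50% with abnormal brightness, or retests that disagree; inactive means below 50% or failed in later tests; about a fifth of its hits are not listed in these tables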;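 further: calls also rest on retests at 20 µM and on dose response follow-up; controls were probe without protein and protein plus probe with vehicle; some compounds called inactive have numbers as strong as hits; many hits fall short of the cut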
MT1-MMP act inh – blocks activation of human MT1-MMP; P50281; HT1080 RFP-PRO-GFP cells, GFP/RFP ratio fluorescence, overnight; percent of plate control window, DMSO zero; GFP/RFP ratio change, % at 20 µM; 360,000 tested, 0.061% active;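 active means GFP/RFP ratio change of at least 30% with cell ATP level not reduced by more than half and red fluorescence within 50% of control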; further: strong numbers were not always called active
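system = RFP-PRO-GFP reporter HT1080 cells | dosing = 20 µM single dose, 1% DMSO | timing = overnight cell settling, then overnight compound exposure, 37 °C, 5% CO2 | read-out basis = GFP/RFP fluorescence ratio | controls = DMSO and RFP-L50D-GFP cell wells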
HIV Env fusion – inhibitors of HIV Env-mediated cell fusion. HeLa-JRFL Env/CEM21 cell fusion, luciferase. inhibition, % at 12.3 µM. 360,000 tested, 1.1% active;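 active means mean replicate inhibition score of at least 50 and every replicate individually at or above 50; inconclusive means only one of the two criteria met; inactive means mean below 50 and not all replicates reaching 50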;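 further: 0% = plate neutral controls and 100% = maraviroc near 300 nM; one replicate is shown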
eIF4H inh retest – recorded beside eIF4H inh, whose call it bears; inhibition, %; compound at 20 µM; confirmation average;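 mean of two retest wells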
PABP FP inh retest – recorded beside PABP FP inh, whose call it bears; inhibition, %; compound at 20 µM; confirmation repeats;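 mean of two retest wells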
MT1-MMP act inh RFP – second read-out of MT1-MMP act inh, no call of its own (marks repeat the call); RFP signal change, %; measured here: RFP expression control read;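 0 = vehicle wells; hits needed this value within 50% of zero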
* hit, by the source's call; i = inactive; ? = inconclusive; · = no result given; + = active, no number; & = joins results of further samples.

SMILES	Rce1 inh	eIF4H inh	Yeast UUG start	CSC inhib	PABP FP inh	MT1-MMP act inh	MT1-MMP act inh RFP	HIV Env fusion	others
S=C(NCC1CCCO1)N1CCN(c2nc(-c3ccc(Cl)cc3)cs2)CC1 (stereo unspecified)	i	-13.2	-22.5	31.9	-0.1	-8.3	-26.2	57.4*
CCN1CCN(CCNC(=O)c2ccc3nc(-c4cccc(C)c4)c(-c4cccc(C)c4)nc3c2)CC1	i	2.8	2.8	-10.8	-16.7	0.1	-5.0	5.4
Cn1ncc(Cl)c1C(=O)Nc1ccc2c(c1)OCO2	i	-3.7	-12.9	-3.2	1.4	-2.1	2.2	1.4
NC(=O)C1(N2CCCCC2)CCN(C(=O)NC2CCCCC2)CC1	i	-6.6	-23.6	-15.4	-9.8	4.1	7.5	·
Cc1ccc(C(=O)C2COC(=O)C2)cc1 (stereo unspecified)	i	-5.8	-12.0	-4.3	-0.1	-9.3	-8.3	-16.1
CCOC(=O)NC(NCC(O)c1ccccc1)(C(F)(F)F)C(F)(F)F (stereo unspecified)	i	-1.5	-24.0	-10.4	1.5	5.7	0.2	-9.8
C=CCN1CC(=O)N2C(c3ccccc3)c3[nH]c4ccccc4c3C[C@H]2C1=O (stereo partly specified)	i	5.4	-3.1	-13.0	14.9	-1.0	-0.9	11.7
CCOCCCn1c(SCC(=O)NCc2ccco2)nc2c(sc3ccccc32)c1=O	i	-8.0	-10.2	-12.2	-5.0	-8.7	-2.3	56.3*
N#CCNc1ccc([N+](=O)[O-])cc1C#N	i	-13.2	·	-2.8	13.7	-1.6	0.0	11.5
Nc1cc(-c2ccccc2)ccc1O	i	-1.0&-10.1	-11.6	13.6	-2.5&7.4	5.7	0.6	-52.8
CCc1sc(C(=O)NCc2ccco2)cc1C	i	3.6	-9.0	-0.9	4.9	1.6	-1.3	-0.8
Cc1cc(C(=O)N2CCCC(N3CCN(c4cccc(C(F)(F)F)c4)CC3)C2)c(C)o1 (stereo unspecified)	i	-13.0	-1.7	12.6	1.0	-0.6	-1.2	-7.1
CCCN1CCC(=O)N([C@H](COc2ccccc2)Cc2ccccc2)CC1	i	-10.3	-9.5	1.3	1.4	7.6	1.4	10.6
CCc1nnc(NC(=O)C2CCCCC2)s1	i	-14.7	·	10.1	-5.3	2.0	3.4	·
CC(C)(C)C(=O)NC(c1ccccc1)c1c(O)ccc2ccccc12 (stereo unspecified)	i	-7.9	-19.9	7.3	0.5	-8.6	-7.6	-16.2
CCOC(=O)C(NC(=O)CC)(Nc1cc(C)on1)C(F)(F)F (stereo unspecified)	i	-3.6	-17.0	9.4	-2.3	0.4	1.5	·
CC(=O)OCC1OC(Sc2cccc3cccnc23)C(OC(C)=O)C(OC(C)=O)C1OC(C)=O (stereo unspecified)	i	-9.5	-14.8	·	-3.9	16.5	6.1	-188.0
C[C@H](NS(=O)(=O)c1ccc2c(c1)OCCCO2)C(=O)N1CCN(Cc2ccccc2)CC1	·	·	-17.8	·	·	3.1	-0.8	17.4
CN(C(=O)COC(=O)/C=C/c1ccc2ccccc2n1)c1c(N)n(Cc2ccccc2)c(=O)[nH]c1=O	·	·	-19.2	·	·	-9.9	-11.5	-7.1
CN(CC(=O)Nn1cnnc1)S(=O)(=O)c1ccc(Br)cc1	i	5.2	·	-0.4	-4.6	6.0	-0.6	-57.3
COc1ccc(OC)c(CN2C(=O)c3ccccc3C2C(=O)NCc2cccnc2)c1 (stereo unspecified)	i	9.1	1.6	-2.6	-5.5	0.8	3.8	2.3
S=c1[nH]nc(-c2ccc(Br)o2)n1Cc1ccccc1	i	-0.7	·	-0.3	-10.1	7.7	3.7	·
CC1CCN(c2ccc3c(c2)S(=O)(=O)c2cccc(C(=O)O)c2C3=O)CC1	·	·	0.8	·	·	-96.8	0.9	-10.5
COc1ccc(C(C)(O)c2nc(-c3cc(F)cc(F)c3)cs2)cc1 (stereo unspecified)	·	·	-19.5	·	·	1.4	-9.7	-21.9
C=C(C)[C@@H]1CC=C(CN2CCC(N3CCC(C(=O)N4CCCC4)CC3)CC2)CC1	i	6.6	1.2	14.9	6.3	3.8	-5.5	12.6
COC(=O)c1cccc(N(C(=O)c2ccco2)C(C(=O)NC2CCCC2)c2ccco2)c1 (stereo unspecified)	i	-7.3	-4.1	-8.9	-4.9	-2.2	1.8	·
Fc1cccc(CSc2nnc3c(n2)[nH]c2ccccc23)c1	i	21.3	·	20.7	14.9	-3.3	-26.0	-0.6
Cc1cc(C)cc(N=Cc2[nH]c3ccc(Br)c(Cl)c3c2O)c1	i	?	·	25.9	3.8*	-29.7	9.7	-29.4	PABP FP inh retest=123.7*
CCOc1ccc(NC(=O)CN2C(=O)COc3ccc(S(=O)(=O)N4CCCCC4)cc32)cc1	i	·	-15.2	-7.4	·	3.5	1.3	1.9
O=C(Nc1ccccc1)Nc1ccc(NC(=O)c2ccccc2O)cc1	i	13.8	-7.0	6.0	2.0	9.1	2.6	-9.6
COc1cc2ccc(C(C)=O)c(O)c2cc1OC	·	·	-0.8	·	·	3.1	1.8	11.4
Cn1c(=O)[nH]c(=O)c2c1nc(NCCCn1ccnc1)n2Cc1cccc(Br)c1	i	4.1	-22.2	·	-13.5	7.8	2.9	·
COc1cc(/C=N/Nc2nc(=O)[nH]nc2C)cc(OC)c1O	i	-2.4	·	0.3	8.3	2.5	2.2	-4.6
CCCn1c(SCC(=O)NCCc2ccccc2)nnc1-c1ccco1	i	12.1	-8.3	-6.7	-3.5	3.0	0.7	-18.1
O=C(Nc1cccc(NC(=O)c2ncn[nH]2)c1)c1cccc(Cl)c1	i	-3.5	-34.1	36.1	29.6	4.0	4.0	2.4
CCCCC(=O)Nc1cccc(NC(=O)c2ccccc2Br)c1	i	1.2	-0.6	5.9	8.9	-0.9	-2.2	18.4
CC(=O)c1cccc(NC(=O)/C(=C\c2cccnc2)NC(=O)c2ccccc2)c1	i	-6.1	-21.9	-1.1	6.7	2.2	2.9	-1.0
CC(=O)NCc1ccc(S(=O)(=O)N/N=C/c2ccc(N(C)C)cc2)cc1	i	7.0	·	-21.3	-2.3	-4.5	-3.3	2.8
Cc1ccc(NC(=O)[C@H](C)NC(=O)C2CCN(C(=O)[C@H](CC(C)C)NC(=O)OC(C)(C)C)CC2)cc1	i	-9.3	6.3	-2.6	-10.2	0.2	0.4	-47.6
CN(C)/C=N/c1nc2nccc(-c3ccc(F)cc3)n2n1	+	-4.1	·	13.1	-6.6	0.8	4.2	-9.1
Cc1ccc(S(=O)(=O)Nc2nc3ccccc3nc2N2CCOCC2)cc1	·	·	-16.0	-10.5	·	2.0	5.7	-7.7
O=C(c1c[nH]c(C(=O)C(Cl)(Cl)Cl)c1)c1ccccc1Br	i	3.4	·	6.7	-5.5	-0.6	-0.5	-2.2
CCOc1ccc(/C=C2/SC(=O)NC2=S)cc1	i	?	-10.2	44.1	13.5	-7.5	-2.4	·
O=c1c(/C=C(\O)c2ccc(F)cc2)nc2ccccc2n1-c1ccccc1	i	-7.2	·	5.0	26.3	-82.2	1.1	·
CN(C)S(=O)(=O)N1CCN(C(=O)c2cccs2)CC1	i	7.1	·	9.9	-5.1	-2.3	1.0	·
COC(=O)C(Cc1ccc(O)cc1)NC(=O)C12CC3CC(CC(C3)C1)C2 (stereo unspecified)	i	0.3	·	0.7	-7.3	1.8	0.1	5.5
Cc1nnc(SCC(=O)Nc2sccc2C#N)n1Cc1ccccc1	i	28.8*	-11.6	-6.9	70.1*	-4.2	-3.3	·	eIF4H inh retest=90.5*;PABP FP inh retest=59.5*
CC1(C(=O)NS(=O)(=O)c2cccs2)CCN1C(=O)c1ccccc1CCc1ccccc1 (stereo unspecified)	·	·	3.6	·	·	-4.2	-0.6	9.9
CCC1=NN(C(=O)c2ccc(Cl)cc2)C(O)(c2ccc(C)cc2)C1 (stereo unspecified)	i	12.3	12.3	98.9*	-8.4	1.3	-2.0	14.7
COc1ccc(OCc2cc(C(=O)NCC(C)Oc3cccnc3)no2)c(Cl)c1 (stereo unspecified)	·	-3.5	-16.3	-5.4	17.6	-7.5	-17.1	·
O=C(NC1CCCc2ccccc21)c1cncc(Br)c1 (stereo unspecified)	i	-4.8	-16.5	18.7	-2.2	-8.3	-9.8	·
NC(=O)c1ccc(Oc2ccc3c(c2)CCC3)c([N+](=O)[O-])c1	i	-4.7	-11.7	·	-3.2	-3.8	-1.6	6.9
CN(c1ccc(C(=O)Nc2cccnc2)cc1)S(C)(=O)=O	i	7.9	6.3	0.7	-8.1	-1.6	-1.7	·
Cc1cc(C)n(-c2nc3ccccc3nc2N2CCCC2)n1	i	-9.0	·	-8.0	10.1	3.4	-1.0	·
COc1cccc(-c2cnc(C(O)c3ccc(F)cc3)[nH]2)c1 (stereo unspecified)	·	·	-12.0	·	·	2.2	-0.9	-55.5
O=C1C(=O)N(CCCn2ccnc2)C(c2cccnc2)/C1=C(/O)c1ccc(F)cc1 (stereo unspecified)	i	0.1	-9.8	·	5.8	-1.3	3.7	-418.1
O=C(Nc1ccccc1Cl)OCC#CCOC(=O)Nc1ccccc1Cl	·	·	-20.5	·	·	-2.3	-1.9	1.6
O=C(NCCOc1nc(N2CCOCC2)nc(N2CCOCC2)n1)Nc1ccccc1	i	4.2	-7.1	-4.7	6.1	-2.9	-2.3	28.2
COc1ccc(C=NCCCN2CCOCC2)cc1	i	-0.4	-6.0	1.1	1.5	-0.5	-0.9	·
Cn1c(O)c(N=NC(=S)Nc2ccccc2F)c2cc(S(=O)(=O)N3CCOCC3)ccc21	·	21.1	-31.4	·	-1.8	5.4	-7.2	33.9

Following part
SMILES	Rce1 inh	eIF4H inh	Yeast UUG start	CSC inhib	PABP FP inh	MT1-MMP act inh	MT1-MMP act inh RFP	HIV Env fusion	others
Cc1ccc(Oc2nnc(-c3ccccc3)cc2C#N)cc1	i	-2.8	-2.0	-0.4	-8.8	5.2	0.0	·
CC(NC(=O)c1ccccc1Cl)C1COc2ccccc2O1 (stereo unspecified)	i	3.3	-42.2	-4.6	-2.4	1.9	-2.3	·
Cc1cc(NC(=O)CS(=O)c2cn(Cc3cccc(Cl)c3)c3ccccc23)no1 (stereo unspecified)	·	·	-1.6	·	·	-0.8	-22.3	28.2
COc1ccc(C2Nc3ccccc3C(=O)N2Cc2ccco2)cc1COc1ccccc1F (stereo unspecified)	i	-4.2	·	49.9	-2.7	-5.3	-3.6	·
COc1ccccc1C(=O)Nc1cccc2c1CCCC2	i	7.9	-23.1	13.6	10.9	-1.0	-3.1	2.8
O=C(CCCn1c(=O)[nH]c2cc(Cl)ccc2c1=O)N1CCN(c2ccc([N+](=O)[O-])cc2)CC1	·	-10.3	6.8	·	-11.2	17.0	1.1	21.3
COc1ccc(-c2nc(N/N=C(\C)c3ccc(O)cc3)c3ccccc3n2)cc1	i	43.6	·	65.7	9.1	-4.5	-0.9	-16.9

As a working copy, some entries already given:
SMILES	Rce1 inh	eIF4H inh	Yeast UUG start	CSC inhib	PABP FP inh	MT1-MMP act inh	MT1-MMP act inh RFP	HIV Env fusion	others
COc1ccc(C2Nc3ccccc3C(=O)N2Cc2ccco2)cc1COc1ccccc1F (stereo unspecified)	i	-4.2	·	49.9	-2.7	-5.3	-3.6	·
COc1ccccc1C(=O)Nc1cccc2c1CCCC2	i	7.9	-23.1	13.6	10.9	-1.0	-3.1	2.8
O=C(CCCn1c(=O)[nH]c2cc(Cl)ccc2c1=O)N1CCN(c2ccc([N+](=O)[O-])cc2)CC1	·	-10.3	6.8	·	-11.2	17.0	1.1	21.3

Compound activity as filed in PubChem.
